Source: PubChem BioAssay (National Center for Advancing Translational Sciences (NCATS))
Rango release inh = inhibitors of RanGTP-induced Rango-importin beta complex dissociation; O95149+P62826; Biochemical FRET Rango-importin beta, RanGTP-induced dissociation; Potency, µM (series often up to 46.1 µM), inactives show top-dose activity change, negative = inhibition; 340,000 compounds, 0.071% hits; active means falling FRET ratio curve, often poorly fitted, with flat reads before Ran was added; inconclusive means other falling curves, or compound fluorescence or quenching; inactive means flat or rising ratio curve;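 also: potency is read from the fitted curve at half-maximal effect; % of control where 0% means no effect; nearly all actives have a fitted effect of over 45% in size; -100% = wells without RanGTP and RCC1; the record marks most hits as doubtful in a second field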
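Two FRET readings bracket the reaction: one 5 min after compound meets Rango–importin beta, another 45 min after RanGTP-RCC1 (0.6 uM Ran, 0.2 uM RCC1, 2 mM GTP) is added. Only the second defines inhibition.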
miR-21 reporter = miR-21 reporter, rising signal. HeLa miR-21 FLuc reporter, luciferase, 48 h. Potency, µM (highest dose often 38.3 µM), for inactives: top-dose reporter change, positive = more light. 340,000 tested, under 10 active; active = well fitted rising curve with a large enough effect; inconclusive = small, poorly fitted or top-dose-only effect; inactive = no such curve, though single readings can be large or run the other way;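 also: % of control where 0% means no effect; miR-21 action dims this reporter so a rising signal means less miR-21 action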
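HeLa cells stably expressing CMV-driven firefly luciferase with a downstream miR-21 binding sequence, endogenously expressing miR-21, were treated with titrations (up to about 40uM final) for 48 hours at 37 degree Celsius. Luciferase luminescence was read after lysis.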
Rango complex inh = inhibitors of Rango-importin beta complex formation; Q14974; Rango CFP/YFP FRET sensor + importin beta, 45 min; Potency, µM (doses to about 92.2 µM), for inactives: at the top dose inhibition of complex formation; 340,000 compounds, 0.031% hits; active = rising FRET ratio curve, often small or poorly fitted; inconclusive = mostly compound fluorescence or quenching in the first reads; inactive = flat curves in all reads;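 also: potency is read from the fitted curve at half-maximal effect; 0% = DMSO wells and 100% = buffer wells lacking importin beta; nearly all actives have a fitted effect of over 15% in size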
Target sequence (Q14974 whole entry, looked up): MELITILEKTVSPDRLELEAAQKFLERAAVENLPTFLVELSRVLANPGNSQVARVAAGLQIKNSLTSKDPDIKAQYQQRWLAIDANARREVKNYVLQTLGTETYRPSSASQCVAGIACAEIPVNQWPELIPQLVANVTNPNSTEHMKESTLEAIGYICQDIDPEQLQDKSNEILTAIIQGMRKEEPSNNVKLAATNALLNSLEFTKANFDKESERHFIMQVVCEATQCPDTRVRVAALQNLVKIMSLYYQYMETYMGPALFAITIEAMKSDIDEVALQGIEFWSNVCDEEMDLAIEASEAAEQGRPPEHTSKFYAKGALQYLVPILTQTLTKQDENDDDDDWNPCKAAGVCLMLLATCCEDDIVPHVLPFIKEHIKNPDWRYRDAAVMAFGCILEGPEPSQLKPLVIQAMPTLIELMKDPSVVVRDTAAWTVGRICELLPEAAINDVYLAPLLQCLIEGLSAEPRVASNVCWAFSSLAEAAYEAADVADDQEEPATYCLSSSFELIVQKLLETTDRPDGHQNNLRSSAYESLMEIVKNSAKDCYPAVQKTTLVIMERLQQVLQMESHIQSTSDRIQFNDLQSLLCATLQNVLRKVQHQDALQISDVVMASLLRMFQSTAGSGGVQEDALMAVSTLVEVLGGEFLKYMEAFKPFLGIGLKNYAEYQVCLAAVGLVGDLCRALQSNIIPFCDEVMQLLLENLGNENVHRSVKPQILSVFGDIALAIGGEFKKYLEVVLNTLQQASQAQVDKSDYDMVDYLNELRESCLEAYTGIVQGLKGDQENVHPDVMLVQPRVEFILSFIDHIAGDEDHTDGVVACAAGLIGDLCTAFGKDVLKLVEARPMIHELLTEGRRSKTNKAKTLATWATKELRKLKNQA
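Inhibition scored from the CFP 486 nm/YFP 530 nm FRET ratio 45 min after adding 0.125 microM importin beta to 50 nM Rango biosensor preincubated 5 min with compound (room temperature, PBS with DTT, Tween-20, BSA). No-importin wells as positive control.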
GLA inh pH 4.5 = alpha-galactosidase A (human) inhibition, pH 4.5 | purified enzyme, 4-MU-alpha-Gal fluorescence, pH 4.5 | activity change, negative = inhibition, % at 105 µM | 230,000 tested, under 10 active | AID 1467; inconclusive = small, poorly fitted or top-dose-only inhibition, or a rising curve; inactive = flat fitted curve, though single readings scatter; no compound was filed as active;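 also: 0% = full activity with enzyme and -100% = basal without enzyme; dose as in the result columns while the protocol names 77 µM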
* = called active by the depositor; u = inconclusive; x = not tested or not shown; & = joins results of further samples.

Molecule | Rango release inh | miR-21 reporter | Rango complex inh | GLA inh pH 4.5
O=C(O)Cc1sc(Nc2cccc3ccccc23)nc1-c1ccc(Cl)cc1 | 3% | -12% | 2.7% | x
CCOc1cc(-c2nc3n(c(=O)c2C#N)CCS3)ccc1O | u | 0% | u | x
CC(C)C(=O)NC(=S)Nc1c(Cl)ccc2nsnc12 | -15% | -1% | -0.7% | -7
COCCN(C(=O)CSc1nc2ccc(C)cc2[nH]1)c1c(N)n(Cc2ccccc2)c(=O)[nH]c1=O | 1% | 2% | -2.5% | -10
Cc1ccc(S(=O)(=O)CCC(=O)N2CCN(c3ccc(Cl)cc3)CC2)cc1 | -4% | 8% | 5.4% | 8
O=C(N/N=C/c1sc(=O)n(-c2ccccc2)c1Cl)c1ccccc1 | -26% | -53% | u | -3
OCCC1CN(Cc2nc3ccccc3[nH]2)CCN1C1CCCC1 (stereo unspecified) | 6% | 1% | 2.3% | -2
N#Cc1cn(CC(=O)NCC2CCCO2)c2ccccc12 (stereo unspecified) | -1% | -3% | 2.1% | 1
CN(C(=O)C1CCOC1)c1nnc(-c2ccncc2)s1 (stereo unspecified) | 13% | -5% | 4.3% | 2
O=C(NCCN1CCOCC1)c1ccc(Cl)c([N+](=O)[O-])c1 | -1% | 2% | -1.8% | x
Cc1ccc(C(=O)CCNc2ccccc2)o1 | -5% | -27% | -0.1% | 4
O=C(CSc1nnc(CNC(=O)c2ccco2)o1)Nc1nc2ccccc2s1 | -11% | -24% | 0.5% | 5
Cc1ccc(Nc2ncnc3c2cnn3C)c(C)c1 | -10% | -23% | 6.8% | x
Cc1cc2cc(CNC(=O)c3cc4ccccc4o3)ccc2n1C | x | -9% | x | -3
O=C(NN1CCOCC1)c1cc(Cl)ccc1Cl | -10% | -2% | 2.9% | x
Cc1ccccc1C(=O)NC1CCN(CC(=O)Nc2ccccc2Cl)CC1 | 13% | -9% | -1.9% | x
Cc1ccc(S(=O)(=O)N2CCOCC2)cc1NC(=O)CNc1ccccc1N1CCCC1=O | -4% | x | 5.2% | x
Clc1ccc2nc(CSCc3ccccc3)cn2c1 | -8% | -61% | 10% | u
O=C(CSC1=NC(=O)C(c2ccccc2)C(=O)N1)Nc1ccccc1[N+](=O)[O-] (stereo unspecified) | 1% | -1% | 1.9% | -2
COc1ccc(CN2CCC(C(=O)Nc3ccc(Oc4cccnc4)cc3)CC2)cc1 | -1% | 13% | -2.7% | x
O=C(CSc1nnc(NC(=O)c2ccccc2F)s1)NCC1CCCO1 (stereo unspecified) | -5% | -41% | 1.8% | x
COc1ccc(/C=N/NC(=O)CCn2c3ccccc3c3ccccc32)cc1OC | -8% | -19% | u | 4
O=C(NCc1ccco1)/C(=C/c1ccco1)NC(=O)c1ccco1 | -14% | 0% | u | -3
COc1ccc(N2CCN(C(=O)c3cn(CC4CCCCC4)nn3)CC2)cc1 | -14% | -3% | 1.1% | x
CC(C(=O)N1CCc2ccccc21)N1CCc2ccccc2C1 (stereo unspecified) | 12% | -4% | 0.0% | 0
Cc1ccc(CNC(=O)CCCc2nc3ccccc3s2)cc1 | 10% | -1% | -1.2% | 4
C/C(=N\NC(=O)c1ccc(Cl)cc1)c1ccc(Br)s1 | 8% | -25% | -0.1% | 2
COc1ccc(-n2c(SCC(=O)Nc3ccccc3)nc(O)cc2=O)cc1 | 4% | -2% | 2.1% | -3
CC(C)Cc1ccc(C(C)C(N)=Nc2ccc(O)cc2)cc1 (stereo unspecified) | 12% | x | 2.1% | x
C(=C\N1CCCCCC1)/c1nnnn1-c1ccc(-c2ccccc2)cc1 | 24% | -1% | -5.5% | 0

One compound at a time (already shown). Order of values: Rango release inh | miR-21 reporter | Rango complex inh | GLA inh pH 4.5
`C/C(=N\NC(=O)c1ccc(Cl)cc1)c1ccc(Br)s1` reads 8% | -25% | -0.1% | 2
`C(=C\N1CCCCCC1)/c1nnnn1-c1ccc(-c2ccccc2)cc1` reads 24% | -1% | -5.5% | 0
`COCCN(C(=O)CSc1nc2ccc(C)cc2[nH]1)c1c(N)n(Cc2ccccc2)c(=O)[nH]c1=O` reads 1% | 2% | -2.5% | -10

Remaining list, next part.
Molecule | Rango release inh | miR-21 reporter | Rango complex inh | GLA inh pH 4.5
OCCN1CCN(c2ncnc3c2sc2nc(N4CCOCC4)c4c(c23)CCC4)CC1 | -26% | -31% | -5.5% | -11
COc1ccc(S(=O)(=O)N(CC(=O)NCc2ccco2)C2CCCCC2)cc1OC | -13% | -3% | -1.0% | 13
CC(C)c1ccc(/C=N/NC(=O)c2cc(-c3cccc([N+](=O)[O-])c3)n[nH]2)cc1 | -14% | 19% | -2.1% | -2
CCOC(=O)c1c(NC(=O)CCC(=O)NCc2ccco2)sc2c1CCCC2 | 0% | -2% | 2.5% | 0
O=S(=O)(/N=C(/Nc1ccc(F)cc1F)c1ccc(Cl)cc1)c1ccccc1 | 8% | -2% | -0.8% | 6
C=C1CC[C@@H]2[C@](C)(CCC[C@@]2(C)/C=C/[C@@H](O)C(C)(C)O)[C@H]1CC(=O)NCCS(=O)(=O)O | -3% | x | 1.9% | x
C=CC[C@@H](CC(=O)N[C@@H](CO)Cc1ccccc1)C(=O)NC[C@@H](OC(=O)[C@@H](CC=C)Cc1ccc(F)cc1)c1ccccc1 | -25% | x | 3.4% | x
COc1cc(C2N(c3ccc(Cl)c(Cl)c3)C(=O)C3CCCN32)cc(OC)c1OC (stereo unspecified) | -4% | -16% | -1.4% | -3
Cc1c(C)c(C)c(/C=[N+](/C)[O-])c(C)c1C | 9% | -1% | 3.4% | 4
CNn1cnc2ccsc2c1=O | -4% | -7% | -1.3% | 6
CN1CCc2c(sc(NC(=O)C3CCN(S(=O)(=O)c4cccs4)CC3)c2C(N)=O)C1 | u | x | u | x
CCOC(=O)C(NC(=O)c1ccccc1)C(C)(C)SCc1ccccc1 (stereo unspecified) | -14% | x | -3.1% | x
Cc1ccccc1NC(=O)N1C2CCC1CC(O)(c1cccnc1)C2 (stereo unspecified) | 2% | -10% | -0.1% | -12
COc1ccc2ccccc2c1/C=N/NC(=O)c1cccc(Br)c1 | 3% | -9% | u | -10
CCCCCOC(=O)C1=C(C)Nc2ncnn2C1c1cccs1 (stereo unspecified) | 0% | 29% | 4.1% | 0
Cc1nn(-c2ccccc2)c(CC(C)(C)C(=O)O)c1C(=O)O | 0% | -4% | -0.9% | 4
Cn1c2ccccc2c(=O)c2ccc(NCc3ccc4c(c3)OCO4)cc21 | u | x | u | x
Cc1cc(-c2nnc(SCC(=O)Nc3ccc(F)c(F)c3)n2N)n[nH]1 | 1% | -6% | 1.0% | x
COc1ccccc1CC(NC(C)=O)C(=O)NC1CCN(C(=O)c2cccc(Cl)c2)CC1 (stereo unspecified) | -21% | 4% | 4.1% | x
COc1cc2c(C(=O)N3CCCc4ccccc43)cn(C)c(=O)c2cc1OC | -3% | 1% | 0.9% | -5
COc1cccc(NC(=S)N(CCCN2CCN(C)CC2)Cc2ccco2)c1 | 0% | -5% | -3.1% | 1
CN(C)c1ccc(S(=O)(=O)NCC(=O)NCC2CCCCC2)cc1[N+](=O)[O-] | 6% | 1% | -0.4% | x
Cc1ccc(S(=O)(=O)N2CCN(C(=O)CSc3nnnn3C)CC2)c(C)c1 | -4% | -7% | 0.0% | 5
Cc1cc(C)c(C#N)c(Oc2ccc(F)cc2)n1 | -2% | -17% | 4.2% | -1
CCOC(=O)c1ccc(-n2c(=O)[nH]c3ccccc3c2=O)cc1 | 14% | -27% | u | -1
O=C(Nc1ccc(F)cc1)N(Cc1cccs1)Cc1cc2cc3c(cc2[nH]c1=O)OCO3 | 7% | 20% | u | -8
NC(=O)c1ccc(NC(=O)CN2CCOCC2)cc1 | 0% | 0% | -0.7% | x
COc1cc(/C=N/NC(=O)c2cccnc2)ccc1OC(=O)c1ccc([N+](=O)[O-])cc1 | 10% | 0% | -0.6% | -8
Cc1cc(OCC(=O)NC2CCN(Cc3ccccc3)CC2)c2c(C)cc(=O)oc2c1 | 2% | 0% | -2.7% | x
C[c-]1[c-](C)[c-](C)[c-](C)[c-]1C.[Fe].c1cc2nccc(N3CCCC3)[c-]2c1 (stereo unspecified) | u | 10%&7% | 2.8%&-5.9% | 11&-7
COC(C(=O)N/N=C(\C)c1ccc(O)cc1)c1ccccc1 (stereo unspecified) | -13% | -14% | -0.7% | x
CCCOC(c1ccccc1)(c1ccccc1)C(Oc1nc(C)cc(C)n1)C(=O)O (stereo unspecified) | 0% | 13% | -1.4% | x
Cc1ccc(-n2nc(-c3ccccc3)cc2Nc2ccccc2N)cc1 | 1% | 0% | 4.6% | 0
CC1=NN(c2cccc(Cl)c2)C(=O)C1 | -1% | 1% | -4.2% | 2
CC(=O)Oc1ccc(NC(=O)C2CCCCC2)c(C(=O)O)c1 | 5% | -5% | 2.6% | 0
Cc1ccc(NC(=S)c2ccncc2)c(C)c1 | -2% | -8% | -0.4% | x
CCOC(=O)c1ccc(NC=C2C(=O)OC3(CCCCC3)OC2=O)cc1 | -4% | -2% | -0.8% | -18
Cc1cnc(C(=O)OC(C(=O)c2c[nH]c3ccccc23)c2ccccc2)cn1 (stereo unspecified) | -20% | x | 1.9% | x
COc1ccccc1N1CCN(C(=O)Nc2ccc(F)c(Cl)c2)CC1 | -20% | -10% | -3.2% | 0
Cn1cc(CCC(=O)NCCCc2ccccc2)c2ccccc21 | -16% | -1% | 0.0% | x
O=C(CCC(=O)N/N=C/c1ccc(Br)o1)N/N=C/c1ccc(Br)o1 | -4% | -2% | 1.7% | x
COc1ccc(N(CC(=O)NCCSc2ccccc2)S(C)(=O)=O)cc1 | 0% | -8% | 4.2% | 0
N#C/C(C(=O)c1ccccc1)=C1/CCCCCN1 | 12% | -40% | -3.9% | -8
CCn1cc(CN2CCC(n3nccc3NC(=O)CCc3ccccc3)CC2)cn1 | 5% | -1% | -0.3% | x
CCOc1ccc(/C=C2\SC(=S)N(N3C(=O)C4CC4C3=O)C2=O)cc1 (stereo unspecified) | 3% | -1% | -2.2% | 9
CCOC(=O)Cc1nnn(CC(=O)OCC)n1 | 2% | 1% | 0.7% | 4
CC(C)NC(=O)C(C)Oc1ccc(S(=O)(=O)NCc2ccc3c(c2)OCO3)cc1 (stereo unspecified) | 9% | -1% | -0.4% | x
C[N+]1(C2CCC3CCCC2C3O)CCCCC1 (stereo unspecified) | 8% | -8% | -1.5% | x
O=C(N/N=C/c1cc2c(cc1Cl)OCO2)c1cccc(Br)c1 | 7% | -12% | 4.3% | x
Cc1nc2scc(C)n2c(=O)c1S(=O)(=O)NC(C)c1ccccc1 (stereo unspecified) | 9% | -1% | -0.5% | x
CCCCOCCCNC(=O)C1CCCCC1 | 0% | 3% | -0.4% | 10
COc1cc(/C=C2\SC(=N)N(c3ccc(F)cc3)C2=O)ccc1O | u | 16% | u | -1
C=CCNc1nc(N)c([N+](=O)[O-])c(NCc2ccccc2)n1 | -5% | -59% | -0.3% | x
CCCOc1ccc(OCCOCCN2CCc3ccccc3C2)cc1 | -4% | -2% | 4.7% | -15
CCOc1ccccc1/C=N/NC(=O)CNC(=O)c1ccc(S(=O)(=O)N2CCOCC2)cc1 | -10% | -3% | 1.2% | -15
CCOc1cccc2sc(N(CCCN(C)C)C(=O)Cc3ccccc3)nc12 | -14% | 15% | -2.1% | -5
O=C(O)c1ccccc1NS(=O)(=O)c1cccc(-n2sc3ccccc3c2=O)c1 | 11% | 13% | -1.8% | x
CN(c1ccccc1)S(=O)(=O)c1ccc(NC(=O)C2CC2)cc1 | 17% | -5% | 1.8% | x
CC(=O)/C=C\c1cn(-c2ncc(C(F)(F)F)cc2Cl)c2ccccc12 | -4% | 21% | 0.0% | -8
Cc1cc2c(c(=O)n1CC1CCCO1)C(c1ccco1)C(C#N)=C(N)O2 (stereo unspecified) | u | -6% | u | 5
Cn1c2c(c(=O)n(C)c1=O)C(C(F)(F)F)(C(F)(F)F)N=C(c1ccc(Cl)cc1)N2 | 2% | 28% | -3.1% | 2
CC(=O)C[C@@H](O)CC(=O)[C@@H]1OC(=O)CCCCCCCCc2ccccc21 | 1% | x | -1.6% | x

The list is partial, so the mix of outcomes need not match the whole.
